Bioassay records (PubChem)
AID504770 – growth inhibition of E. coli YBA685, primary screen, V. cholerae RctB inhibitors; 130,000 tested, 0.27% active; z-score (test concentration not listed); AID 504770, 2011; E. coli YBA685 rctB-dependent plasmid, OD600 growth, 3 h; hits give low values;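 active = z-score under -2 on both plates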;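 also: wells of about 30 µL received 100 nL stock; score is relative to mean and SD of the test wells; the first replicate is given; strong numbers were not always called active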
CapD inh – Bacillus anthracis CapD inhibitors, primary screen, biochemical, fluorescence intensity; CapD gamma-glutamyltranspeptidase (Bacillus anthracis Ames Ancestor); purified CapD enzyme, fluorescence intensity read-out; hits give low values; some hits fall short of the stated cut; z-score (test concentration not listed); 140,000 tested, 0.23% active;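 active = z-score under -4 in either of two replicates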;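 also: stock transfer was 100 nL into about 40 µL; score is relative to mean and spread of the plate; one replicate is shown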
* marks the source's active call; other numbers are inactive results; i = inactive; . = no result given. The list is partial; count on the stated rates, not on these rows.

SMILES | AID504770 | CapD inh
CCNc1cc(N2CCCCCC2)c2noc3c2c1C(=O)c1ccccc1-3 | 1.7 | -0.3
Cc1cccc(NC(=O)COC(=O)/C=C/c2ccc(C)o2)c1 | -0.1 | .
O=C(/C=C/c1ccc2c(c1)OCO2)Nc1ccc(-n2nncc2-c2ccccc2)cc1 | 0.35 | 0.41
O=c1oc2cc3occ(-c4ccccc4)c3cc2c2c1CCCC2 | 0.65 | 7.5
CCOC(=O)COc1cc(Br)c(/C=c2\sc3nc4ccccc4n3c2=O)cc1OC | . | 0.78
CCN(CC)C(=O)N[C@H]1C[C@@H]2c3cccc4[nH]cc(c34)C[C@H]2N(C)C1 | . | -0.33
C=CCNC(=O)C1CC(=O)N(c2ccc(OCC(=O)Nc3ccc(F)c(Cl)c3)cc2)C1 (stereo not given) | -0.35 | .
OC(CN1CCN(c2nc3ccc(Cl)cc3s2)CC1)c1ccccc1 (stereo not given) | 0.65 | 0.24
O=C(NCN1CCCCC1)C12CC3CC(CC(C3)C1)C2 | -0.8 | -0.24
COc1cc(/C=N/NC(=O)COc2ccc(F)cc2)ccc1OC(=O)OC(C)(C)C | . | -0.57
CCOP(=O)(OCC)c1nc(-c2ccc(Cl)cc2Cl)oc1NC | . | 30
O=C(Nc1ccccc1Br)c1cc(S(=O)(=O)N2CCN(c3ccccc3Cl)CC2)ccc1F | . | -0.11
Cc1cnc(C(=O)Nc2ccc(N3CCCCC3)cc2)cn1 | 0.3 | -0.89
Oc1ccccc1C=Nc1ccc(N2CCOCC2)cc1 | -1.1 | -0.77
Clc1c2c(nn1-c1ccccc1)CCCC2 | 0.15 | 0.29
CCCNc1nc(OCC(F)(F)F)nc(OCC(F)(F)F)n1 | . | 0.035
CCCS(=O)(=O)n1nc(-c2ccccc2)cc1N | 0.7 | -0.26
CC1=CN2C(=O)C(Cc3ccccc3)(NC(=O)c3ccccc3)N=C2C=C1 (stereo not given) | -0.05 | 95
CN1CCN(C(=O)CCc2nc3ccccc3c(=O)[nH]2)CC1 | 0.15 | .
O=C1CC(C(=O)O)C2(CCCC2)O1 (stereo not given) | 1.4 | .
CCN(CC)c1ccc2oc(=O)c(C)nc2c1 | -1.4 | -2.2
COc1ccc(CNC(=O)C2(CC(=O)NC(C)(C)C)CCCC2)cc1 | -0.8 | .
O=C(N/N=C/c1cn(Cc2ccccc2)c2ccccc12)c1cc(C2CC2)nc2ccccc12 | . | 0.56
CC(O)(C(=O)O)c1ccccc1 (stereo not given) | -0.1 | 0.07
O=C1NC2(CCCC2)NN1C(=O)c1ccncc1 | 0 | -0.41
Cc1cc(C)c(C#N)c(SCCOc2ccccc2F)n1 | 0.3 | .
CSc1nc(-c2cnccn2)nc(-c2ccccc2Cl)c1C#N | -0.05 | -0.32
CC1CCCCN1CCCNC(=O)c1ccc2c(c1)NC(=O)CS2 (stereo not given) | 0.1 | 0.82
O=[N+]([O-])c1cc(C(F)(F)F)ccc1NCc1ccccc1 | . | 0.36
Cc1cc([P+](=O)O)c(C)n1-c1ccc(Br)cc1 | -0.7 | .
CCOC(=O)c1cnn(-c2ccccc2)c1NC(=O)c1ccco1 | -0.5 | 0.08
Cc1ccc(C)c(Cn2cccc2C#N)c1 | -0.2 | -0.29
Cc1ccc(NC(=O)c2cc(C3CC3)[nH]n2)cc1 | -1.2 | 0.06
Cc1ccc(N/C(SCc2ccccc2C)=C(/C#N)C(=O)NCc2ccco2)cc1C | . | -0.12
CCc1cc(C(=O)c2ccc(OC)cc2)c(N)s1 | -0.45 | -0.005
Nc1nccnc1C(=O)OCC(=O)N(c1ccccc1)C1CCCCC1 | 0.65 | .
Cc1ccccc1NC(=S)N(CCCN1CCCC1)Cc1cccn1Cc1ccc(Cl)cc1 | -1.4 | -0.29
CC(C)c1ccc(NC(=O)CN(c2ccnn2C(C)C)S(=O)(=O)c2ccccc2)cc1 | -0.65 | .
O=C(c1cc2cc(Br)ccc2oc1=O)N1CCN(CCO)CC1 | -1.1 | 0.21
Cc1cc(C)c2c(n1)sc1c(=O)n(NC(=O)Nc3ccccc3)c(C)nc12 | 1.4 | 0.91
Cc1cc2c3c([nH]c2cc1S(=O)(=O)N(CCN1CCOCC1)Cc1ccco1)CCCC3=O | 0 | 0.25
CN1C(=O)COc2ccc(N)cc21 | -0.75 | .
CC1=CC(C)(C)N(C(=O)c2ccccc2)c2ccc(OC(=O)c3ccccc3)cc21 | -0.1 | -0.79
CN1CC2=C(C1=O)C(c1ccccc1)NC(=O)N2 (stereo not given) | -0.25 | .
O=C(NCc1nc(-c2ccccc2)no1)c1ccc(-c2ccccc2)cc1 | -0.45 | 0.64
CC(=O)Nc1cc(C(=O)NCCc2ccccc2)ccc1Sc1ccc(Cl)cc1 | -0.65 | -1.1
O=C(Nc1ccc(OC(F)(F)F)cc1)NC1CCN(c2nccc(C(F)(F)F)n2)CC1 | -0.4 | -0.085
CCN(CC)C(=O)COc1ccc(-c2nnc(Nc3ccc(OC)c(C(N)=O)c3)c3ccccc23)cc1 | -0.75 | -0.33
COC(=O)c1ccc(N=CC23c4ccccc4C(c4ccccc42)C2C(=O)N(c4ccc(C)cc4)C(=O)C23)cc1 (stereo not given) | . | -0.09
O=C(Nc1ccc(F)cc1)C1CC1(c1ccccc1)c1ccccc1 (stereo not given) | . | -0.035
COc1ccc(C(=O)N2CCN(c3ccc(N4CCOCC4)nn3)CC2)cc1 | -0.55 | 0.15
COC(=O)c1c(I)cnn1C | -1.1 | 2.7
COc1ccc(C(=O)N/C(=C\c2ccc3c(c2)OCO3)C(=O)Nc2cccc(C(=O)O)c2)cc1 | . | -0.78
COC(=O)c1nc[nH]c1C(=O)OC | 0.05 | 0.55
Cc1cc(-c2ccc(S(=O)(=O)N3CCc4ccccc4C3)s2)n[nH]1 | -1.6 | -0.93
CCN(CCc1ccccn1)S(=O)(=O)c1cccc(Br)c1 | . | -0.38
O=C(O)Cc1c(Sc2ccccc2)c2ccccc2n1Cc1ccccc1 | -0.65 | 0.26
CCSCCOC(=O)C1=C(C)NC2=C(C(=O)CCC2)C1c1ccc(OCc2ccccc2)c(OC)c1 (stereo not given) | . | 7
Cc1nc(SC2CCCCN(C(=O)c3ccc(Cl)cc3)C2=O)c2c3c(sc2n1)CCCC3 (stereo not given) | 0.25 | 22
O=C(c1cccnc1Oc1ccccc1)n1ccc(-c2cccs2)n1 | -0.2 | 0.9

The list continues:
SMILES | AID504770 | CapD inh
CC(=O)Nc1nc2c(s1)Cc1ccccc1-2 | 2 | -0.35
N#Cc1c(NC(=O)C2CCCO2)sc2c1CCC2 (stereo not given) | -0.2 | .
O=C(O)c1c[nH]c2c(-c3ccccc3)c(C(F)(F)F)sc2c1=O | . | 0.3
Cc1c(C(=O)N2CCC3(CC2)OCCO3)sc2ncn(CC(=O)Nc3cccc(C(F)(F)F)c3)c(=O)c12 | . | 0.065
CC1(C)CC(NC(=O)c2ccc(-n3cnnn3)cc2)CC(C)(C)N1 | -0.75 | 0.63
CC(C)c1ccc(NN2C(=O)CC(c3ccccc3)C2=O)cc1 (stereo not given) | 0.65 | 0.35
CN1C/C(=C\c2ccc(Cl)cc2)C(=O)/C(=C/c2ccc(Cl)cc2)C1 | . | 0.45
CCN(CCS(=O)(=O)c1ccccc1)S(=O)(=O)c1ccc(C)cc1 | -0.7 | 0.36
COc1ccc(CO)c(Cl)c1OC | . | -0.28
COc1ccccc1NC(=O)Nc1ccccc1 | 0.3 | -0.17
COc1ccccc1C(=O)NCC(=O)O | -0.3 | .
C=CCNC(=O)Cn1nc(-c2ccccc2F)ccc1=O | 0.15 | .
Cc1ccc2cc3c(=O)n(C)c(=O)n(C)c3nc2c1 | -0.95 | 20
CN1CCN(C(C#N)c2ccc(O)cc2)CC1 (stereo not given) | 0.85 | .
O=C(CCN1CCN(C(c2ccccc2)c2ccccc2)CC1)N/N=C/c1ccc(O)cc1O | 0.25 | .
O=C(CSc1nc2c(c(=O)n1-c1ccccc1)SCC2)N1CCCC1 | -1.2 | .
O=C(O)CCNC(=O)c1ccc(Br)o1 | 0.2 | .
CC(=O)NCc1ccc(S(=O)(=O)NN)cc1 | . | -0.3
O=C(OCc1ccc([N+](=O)[O-])cc1)C1CCCN1C(=O)OCc1ccc([N+](=O)[O-])cc1 (stereo not given) | . | -0.8
CSc1nnc2c(n1)OC(c1ccccc1C(F)(F)F)Nc1ccccc1-2 (stereo not given) | . | -0.61
Cc1nc(N2CCOCC2)c2c(C)c(C(=O)Nc3ccccn3)sc2n1 | . | 3.3
N#Cc1ccc(COC(=O)c2cncn2-c2ccc(F)cc2)cc1 | 0.45 | .
CCC(C)Nc1nc(-c2ccc(Cl)cc2)cs1 (stereo not given) | -0.85 | -0.28
N#Cc1ncoc1-c1cccc(Cl)c1 | -0.65 | -0.24
Cc1ccc(C(=O)NCC2COc3ccccc3O2)o1 (stereo not given) | -1.4 | .
Cc1ccc(Cn2cccc(NS(C)(=O)=O)c2=O)cc1 | -0.3 | .
O=C(COc1ccc(-n2cnnn2)cc1)NCCc1ccc(F)cc1 | 0.95 | .
Cc1cc(=O)oc2cc(OCC(=O)OCc3cn4cc(Cl)ccc4n3)ccc12 | 1.2 | .
COC(C(=O)Nc1ccc2c(c1)OCO2)c1ccccc1 (stereo not given) | 0 | -0.3
CC(Cc1ccccc1)N1Cc2ccccc2C1 (stereo not given) | 2.1 | 0.43

A draw from above in order of formula weight, rising.
SMILES | AID504770 | CapD inh
Cc1ccc(C(=O)NCC2COc3ccccc3O2)o1 (stereo not given) | -1.4 | .
Cc1nc(N2CCOCC2)c2c(C)c(C(=O)Nc3ccccn3)sc2n1 | . | 3.3
Cc1cc(=O)oc2cc(OCC(=O)OCc3cn4cc(Cl)ccc4n3)ccc12 | 1.2 | .

Following part.
SMILES | AID504770 | CapD inh
O=C(CN(c1ccccc1)S(=O)(=O)c1ccccc1)N1CCOCC1 | . | -0.46
CCOC(=O)CSc1nc2cccnc2s1 | 1.1 | -0.42
O=C(OCC1CCCN2CCCCC12)c1ccc2c(c1)OCO2 (stereo not given) | 2.1 | -0.64
COc1ccc(N2CCN(c3c(S(=O)(=O)c4ccccc4)cnc4ccc(Cl)cc34)CC2)cc1 | 0.95 | -0.61
Cc1ccc(C(O)(c2nc3ccccc3[nH]2)C(F)(F)F)c(O)c1 (stereo not given) | 1.6 | -0.33
CCC(C(=O)O)n1nc(-c2ccccc2)c2cc(Cl)ccc21 (stereo not given) | -0.35 | 17
CCOC(=O)c1c(/C=C/C(=O)O)c(C)n(CC)c1C | 0.4 | .
CC1C(c2ccccc2)OCCN1CN1C(=O)c2ccccc2C1=O (stereo not given) | . | 0.06
CC1SC(c2ccc(F)cc2)NC1=O (stereo not given) | -0.6 | 0.16
O=S(Cc1cc(Sc2ccccc2)nc(-c2ccccc2)n1)c1ccccc1 (stereo not given) | -0.1 | -0.17
Cc1cc2n(n1)C(/C=C\c1ccccc1)Nc1c(C)cccc1-2 (stereo not given) | 0.2 | 2.3
O=C(c1cn[nH]c1)c1cc(Cl)cc(Cl)c1O | 0.25 | .
O=C(c1ccc2ccccc2n1)n1nc2ccccc2n1 | -1.9 | 0.55
COc1ccc(Nc2cc(C(F)(F)F)ccc2Cl)c(C(=O)O)c1 | -0.5 | -0.5
COC(=O)c1cc2cc(Br)ccc2oc1=O | -0.7 | -0.59
Cc1ccc(S(=O)(=O)Nn2c(SCC(=O)NCCc3ccc(S(N)(=O)=O)cc3)nc3ccccc3c2=O)cc1 | . | -1.2
Cc1nc2cc(NC(=O)c3cccc([N+](=O)[O-])c3)ccc2s1 | . | -0.49
O=c1nc2scc(CO)n2c2sc3c(c12)CCCC3 | 0.1 | 0.025
O=C(NNc1ncnc2ccccc12)c1ccc(O)cc1 | 0.25 | .
Cc1cccc(NC(=O)c2cc3ccc(O)cc3oc2=O)c1 | -0.8 | 0.32
CN1C(=O)/C(=C/c2cn(CC(=O)O)c3ccccc23)c2ccccc21 | -0.6 | 0.36
COc1cc(NC(=O)NCCN2CCCc3ccccc32)cc(OC)c1OC | -0.85 | 0.16
Cc1ccc(-c2cc(C(=O)N3CCC4(CC3)OCCO4)c3ccccc3n2)o1 | -0.55 | 45
COCCn1c(=O)c(=O)n(Cc2ccc(Cl)cc2)c2cc(C(F)(F)F)ccc21 | . | 3.2
CCOC(=O)c1c(C)n(-c2ccccc2)c2ccc(OC(=O)Cc3ccccc3)cc12 | . | 0.015
O=C(Nc1c(Cl)cccc1Cl)C1CC1(c1ccccc1)c1ccccc1 (stereo not given) | . | -0.07
CCN(CC)S(=O)(=O)c1ccc2c(c1)nc(SCC(=O)N1CCOCC1)n2-c1ccccc1OC | -0.25 | .
COc1cccc(/C=N/NC(=O)CSCc2ccccc2)c1O | 0.05 | .
Cn1c(NC(=O)c2ccccc2)nc2ccccc21 | 0.6 | 0.17
Cc1ccc2c(c1Br)C1(C(=O)N2)C(C#N)=C(N)Oc2n[nH]c(-c3ccc4c(c3)OCO4)c21 (stereo not given) | . | 0.16

One compound at a time, from the list above:
`CN1C(=O)/C(=C/c2cn(CC(=O)O)c3ccccc23)c2ccccc21` as listed: AID504770 = -0.6; CapD inh = 0.36
`Cc1nc2cc(NC(=O)c3cccc([N+](=O)[O-])c3)ccc2s1` as listed: AID504770 = .; CapD inh = -0.49

(continued)
SMILES | AID504770 | CapD inh
CS(=O)(=O)c1ccc2nc(NC(=O)c3cccs3)sc2c1 | 1.6 | i
CN=c1scc(-c2ccccc2OC)n1/N=C/c1ccc[nH]1 | -0.35 | .
COc1ccc(C(=O)NNC(=O)OCC2CCC3CC2C3(C)C)cc1 (stereo not given) | . | -0.025
O=C(CCCC(=O)N1CCCC1)N1CCCC1 | -0.55 | 0.18
CC1CC(C)(C)NC(=O)O1 (stereo not given) | -0.45 | .

Single values from the entries so far.
COc1ccc(C(=O)NNC(=O)OCC2CCC3CC2C3(C)C)cc1 (stereo not given) in CapD inh is entered as -0.025
CN=c1scc(-c2ccccc2OC)n1/N=C/c1ccc[nH]1 in AID504770 is entered as -0.35
O=C(CCCC(=O)N1CCCC1)N1CCCC1 in CapD inh is entered as 0.18
